High-throughput results from PubChem.
rRNA inh HTS = selective bacterial rRNA inhibition in E. coli | E. coli WT GFP vs humanized-ribosome RFP mutants, fluorescence, 24 h; hits give low values; DMSO median 0, no signal -100 | GFP signal change (wild-type ribosome), % (concentration not given with the values) | 350,000 compounds, 1.6% hits;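 active means significant combined selectivity score with lowered wild-type GFP, culture density cut under 30%, mutant RFP and density less affected; inactive means any of these conditions unmet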; further: one replicate is shown; some compounds called inactive have numbers as strong as hits
T cruzi repl = blocks replication of Trypanosoma cruzi; inhibition, % (no concentration beside the values); T. cruzi beta-gal in NIH3T3, luminescence, 90 h; 300,000 compounds, 1.4% hits;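 active means mean inhibition across valid replicates above about 55%, limit read from the data; inconclusive means mean below that limit but half or more replicates reach it; inactive means mean below it, under half of replicates reach it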;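 further: signal also drops with host cell toxicity which is not excluded here; 0% = plate median of DMSO wells and 100% = zero luminescence signal; higher percent means less beta-gal luminescence so fewer parasites; stock transfer was 50 nL into about 50 µL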
ALR inh = blocks human ALR sulfhydryl oxidase activity; inhibition, % (no concentration beside the values); purified ALR, DTT oxidation, H2O2 HRP-luminol luminescence; P55789; AID 485317; 290,000 compounds, 3.8% hits;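 active means mean and each replicate at 75% or more; inconclusive means only one of the two met; inactive means neither met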;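 further: stock transfer was 7.5 nL into about 7.5 µL; 0% = neutral wells and 100% = wells with inactivated enzyme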
LANA-H2A inh = blocks KSHV LANA binding to histone H2A/H2B. inhibition, % (concentration not given with the values). AID 2629. 320,000 compounds, 0.6% hits. cell-free LANA-H2A/H2B peptide, fluorescence polarization; in the data active means inhibition mostly above about 10%, no sharp cut-off; inactive means mostly below about 6.7%;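 further: stock transfer was 7.5 nL into about 10 µL; 0% = median of vehicle wells and 100% = median of positive control wells; one replicate is shown; the record names a cut of 25% in any replicate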
Target sequence (Q9QR71 whole entry, looked up): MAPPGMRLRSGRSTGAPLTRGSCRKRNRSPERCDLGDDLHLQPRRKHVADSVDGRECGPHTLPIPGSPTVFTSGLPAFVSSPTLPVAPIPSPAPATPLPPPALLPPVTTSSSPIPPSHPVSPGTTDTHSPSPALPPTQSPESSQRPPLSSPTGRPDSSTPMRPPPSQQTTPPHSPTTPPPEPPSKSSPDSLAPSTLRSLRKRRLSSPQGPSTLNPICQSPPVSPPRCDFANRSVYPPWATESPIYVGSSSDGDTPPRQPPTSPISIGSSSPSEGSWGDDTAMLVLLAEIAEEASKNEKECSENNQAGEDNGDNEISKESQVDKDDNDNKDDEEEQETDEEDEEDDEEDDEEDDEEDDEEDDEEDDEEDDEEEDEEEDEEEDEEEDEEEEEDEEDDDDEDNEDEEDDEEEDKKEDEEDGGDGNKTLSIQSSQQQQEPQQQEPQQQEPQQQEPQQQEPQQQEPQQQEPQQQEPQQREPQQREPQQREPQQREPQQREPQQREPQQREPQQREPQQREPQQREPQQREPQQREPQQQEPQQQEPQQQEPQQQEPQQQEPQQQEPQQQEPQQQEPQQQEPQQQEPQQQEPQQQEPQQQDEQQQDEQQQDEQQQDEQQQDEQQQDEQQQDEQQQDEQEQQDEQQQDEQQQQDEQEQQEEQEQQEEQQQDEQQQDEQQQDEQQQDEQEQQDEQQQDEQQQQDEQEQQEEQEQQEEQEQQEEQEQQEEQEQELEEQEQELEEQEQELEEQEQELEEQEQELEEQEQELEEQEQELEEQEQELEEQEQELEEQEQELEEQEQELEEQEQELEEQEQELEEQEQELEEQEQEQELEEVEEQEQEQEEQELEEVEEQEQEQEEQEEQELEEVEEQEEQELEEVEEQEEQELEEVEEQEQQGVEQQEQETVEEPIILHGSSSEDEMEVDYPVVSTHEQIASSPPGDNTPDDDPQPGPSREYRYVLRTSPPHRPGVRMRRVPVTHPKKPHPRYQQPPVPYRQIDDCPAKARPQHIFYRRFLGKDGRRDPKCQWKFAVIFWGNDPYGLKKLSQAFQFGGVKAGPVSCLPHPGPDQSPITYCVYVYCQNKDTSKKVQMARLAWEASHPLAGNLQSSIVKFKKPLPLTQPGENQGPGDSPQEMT
Calb FLC = affects C. albicans growth with fluconazole; C. albicans CaCi-2 (fluconazole-resistant clinical isolate) + fluconazole, Alamar Blue growth, 48 h; growth inhibition, % (test concentration not listed); 300,000 compounds, 0.57% hits;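 active means most replicates above 75%; inconclusive means exactly half above 75%; inactive means most below 75%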;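 further: all wells also contain fluconazole at 8 µg/ml as a sub-toxic cotreatment; 0% = median of DMSO wells and 100% = median of geldanamycin control wells; wells of about 8 µL received 7.5 nL stock; the first replicate is given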
Beta cell apopt = beta cell apoptosis inhibition. protection from apoptosis, % (test concentration not listed). 300,000 compounds, 0.8% hits. AID 435005. INS-1E cytokine-induced death, ATP luminescence, 48 h; percent of positive-control rescue, neutral wells zero;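 active means all replicates at 75% or more, or half of them and the mean; inconclusive means half reach 75% but not the mean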;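 further: 0% = cytokine-treated negative control wells and 100% = positive control rescue; higher means more ATP so stronger rescue from cytokine killing; wells of about 40 µL received 100 nL stock; the first replicate is given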
A1 inh = inhibitors of the anti-apoptotic protein A1, read as caspase activation; caspase activation, % (concentration not given with the values); MEF A1-2A-BIM cells, Caspase-Glo 3/7 luminescence, 3 h; percent of clofoctol response, vehicle zero; 330,000 compounds, 0.066% hits;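 active means over half of replicate activation scores above 10%, or exactly half above 10 with the replicate mean above 10; inconclusive means replicate mean below 10 yet half the replicates above 10; inactive means over half of replicates below 10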;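 further: wells of about 30 µL received 50 nL stock; many hits fall short of the cut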
B2AR ag = activates human beta-2 adrenergic receptor causing internalization. Am2.2-beta2AR cells, FAP receptor internalization, flow cytometry; reference of the scale not given here. response, % (concentration not given with the values). 340,000 compounds, 0.43% hits. AID 504454;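 active means response above a set limit, near 3 SD of response in nonfluorescent compounds, cut at about 42% in these data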;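 further: stock transfer was 100 nL into about 11 µL; a reference agonist was the positive control; negative values mostly stem from fluorescent compounds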
rRNA inh HTS OD600 = also measured in rRNA inh HTS; calls as there; OD600 change, %; measured here: OD600 growth;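 optical density of the mix in the first replicate; 0 = DMSO median and -100 = no signal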
rRNA inh HTS RFP = also measured in rRNA inh HTS; calls as there; RFP signal change, %; measured here: RFP humanized mutant strains;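 first replicate; 0 = DMSO median and -100 = no signal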
* = called active by the depositor; ? = inconclusive; nt = no result given. These rows are one share of the data. The share of hits here may be higher or lower than overall.

SMILES | rRNA inh HTS | rRNA inh HTS OD600 | rRNA inh HTS RFP | T cruzi repl | ALR inh | LANA-H2A inh | Calb FLC | Beta cell apopt | A1 inh | B2AR ag
CN1CCN(S(=O)(=O)c2ccc(N3CCN(c4ccc(O)cc4)CC3)c([N+](=O)[O-])c2)CC1 | -13 | -2 | -4.0 | 5 | 98* | 1.3 | -11 | 0 | -0.6 | -2
C[C@H](NC(=O)c1ccccc1)C(=O)N1CCN(c2ccccc2)CC1 | 1 | 9 | 0.9 | -11 | 33 | 0.1 | -9 | -5 | 1.5 | -7
COc1cccc(CNC(=O)CCC2CCCN(C(=O)c3cscn3)C2)c1 (stereo not drawn) | 0 | -2 | -7.9 | 6 | -15 | 4.2 | -1 | -4 | 0.0 | 4
C[C@H](N)c1nnc(SCc2c(Cl)cccc2Cl)o1 | nt | nt | nt | -11 | -5 | -4.2 | 4 | -1 | 1.6 | 3
COc1ccc(N2CCN(C(=O)CN(CCc3ccccc3)S(C)(=O)=O)CC2)cc1 | -9 | -1 | 2.7 | -5 | 88* | -0.3 | -14 | 3 | -0.4 | -2
Cc1cc(C)nc(NC(=O)/C=C/c2ccccc2Cl)n1 | nt | nt | nt | 11 | 14 | -8.4 | 22 | 8 | -5.1 | -7
COc1ccnc(Oc2ccc(F)cc2)c1C(=O)N/C=N/OCc1ccc(F)cc1 | nt | nt | nt | 3 | -2 | 2.0 | -18 | 2 | 0.5 | 1
COc1ccc(Cl)cc1NC(=O)NCC1CCN(Cc2ccccc2F)CC1 | -5 | -28 | 38 | 25 | -5 | -3.2 | -14 | -2 | -0.2 | -3
CCOC(=O)C1CCN(c2c(NC3CCCCCCC3)c(=O)c2=O)CC1 | 1 | 3 | -1.8 | 0 | 0 | 1.2 | 4 | 6 | 0.0 | -5
CCOC(=O)c1[nH]c(C)c(CC(C)C)c1C | nt | nt | nt | -1 | 0 | -4.6 | nt | -3 | -0.6 | -5
CCCn1c(SCC(=O)NC2CCCC2)nnc1-c1ccccn1 | 11 | -3 | -0.3 | -2 | -1 | 5.5 | 3 | -1 | -0.4 | 2
COCCCn1c(SCc2ccccc2)nc2cc(OC)c(OC)cc2c1=N | nt | nt | nt | 56* | 0 | 1.7 | 16 | 3 | 0.8 | 11
c1csc(-c2nc3c4ccccc4c4ccccc4c3[nH]2)c1 | nt | nt | nt | 53 | nt | -4.3 | 22 | 38 | -0.5 | 25
O=c1cc(C(F)(F)F)nc(-n2[nH]c3c(c2=O)CCCC3)[nH]1 | nt | nt | nt | -3 | nt | 0.3 | 20 | 1 | -0.2 | -1
Cc1c(C)c2ccc(OCC(=O)N(C)C)c(C)c2oc1=O | nt | nt | nt | 0 | 20 | 1.4 | -2 | 2 | -0.6 | -10

Reprinted from the part before: four compounds, then new ones.
SMILES | rRNA inh HTS | rRNA inh HTS OD600 | rRNA inh HTS RFP | T cruzi repl | ALR inh | LANA-H2A inh | Calb FLC | Beta cell apopt | A1 inh | B2AR ag
COCCCn1c(SCc2ccccc2)nc2cc(OC)c(OC)cc2c1=N | nt | nt | nt | 56* | 0 | 1.7 | 16 | 3 | 0.8 | 11
c1csc(-c2nc3c4ccccc4c4ccccc4c3[nH]2)c1 | nt | nt | nt | 53 | nt | -4.3 | 22 | 38 | -0.5 | 25
O=c1cc(C(F)(F)F)nc(-n2[nH]c3c(c2=O)CCCC3)[nH]1 | nt | nt | nt | -3 | nt | 0.3 | 20 | 1 | -0.2 | -1
Cc1c(C)c2ccc(OCC(=O)N(C)C)c(C)c2oc1=O | nt | nt | nt | 0 | 20 | 1.4 | -2 | 2 | -0.6 | -10
N/C(=N\c1nc(CSc2nnnn2-c2ccccc2)cc(=O)[nH]1)Nc1ccccc1 | 22 | 14 | 3.1 | 3 | nt | -4.1 | -13 | 4 | -0.5 | nt
Cc1cc(C)c(S(=O)(=O)Nc2cccc(S(=O)(=O)NC3=NCCC3)c2)c(C)c1 | 1 | 1 | -13 | -1 | nt | -2.9 | 5 | -4 | 0.7 | 6
N#CCCN(C(=O)CCl)c1cccc(Cl)c1 | -4 | -3 | -0.6 | 49 | 5 | -1.3 | 15 | -44 | -0.2 | -2
CCOC(=O)Cn1nc(C)cc1NC(=O)c1ccncc1 | 12 | 7 | -0.9 | 12 | -9 | -1.1 | -1 | -4 | -0.2 | -3
CCN(CC(=O)NCc1ccc(F)cc1)C(=O)/C=C/c1cc(OC)ccc1OC | 3 | 1 | 3.4 | 1 | nt | nt | 0 | nt | nt | -1
C=CCn1c(-c2cccc(OC)c2OC)n[nH]c1=S | 22 | 13 | 4.1 | -14 | 65 | -0.3 | ? | 5 | 1.3 | -3
COc1ccc(NC(=O)c2cc(-c3ccccc3Cl)no2)cc1 | nt | nt | nt | 4 | -3 | 3.5 | -7 | 1 | -0.3 | 1
CC1(C)Cc2nc3oc4c(=O)n(CC(=O)Nc5cccc(Cl)c5)cnc4c3cc2CO1 | 1 | 9 | 2.1 | -2 | nt | 11 | -1 | 11 | 0.4 | -2
Cc1ccc(F)cc1NC(=O)c1cnccn1 | 20 | 4 | 0.4 | -3 | -9 | 0.9 | -7 | -4 | -0.6 | -6
COc1ccc(-c2csc(NC(=O)c3ccccc3C(=O)O)n2)cc1 | -1 | 4 | -1.1 | 3 | 16 | 4.7 | -2 | -1 | 0.0 | -4
COc1cc2ccccc2cc1C(=O)N(CCN(C)C)c1nc2c(OC)ccc(OC)c2s1 | -4 | 4 | 11 | 20 | -13 | -4.4 | 37 | -1 | 0.6 | 28
COc1ccc(OC)c2c1cc(C(=O)N[C@H](C(=O)N1CCC(C(=O)O)CC1)C(C)C)n2C | 6 | 16 | -1.0 | 0 | 20 | 0.6 | 5 | -2 | 1.2 | -3
O=S(=O)(Nc1ccccc1Cl)c1cc(NC(=S)NCCN2CCOCC2)ccc1Cl | -9 | -7 | 7.3 | 10 | nt | 0.4 | 4 | -23 | 0.1 | 1
COc1ccccc1CNC(=O)CCn1c(=O)oc2ccccc21 | 9 | 13 | -4.6 | -1 | -8 | 0.5 | 0 | 3 | 0.8 | -2
COc1ccc(OCc2nnc3n2N=C(c2ccc(OC)cc2)CS3)cc1 | -56 | -73 | -18 | 8 | -11 | -3.5 | 5 | 10 | -1.0 | -24
O=C(CN1C(=O)S/C(=C/c2ccc(N3CCOCC3)cc2)C1=O)N1CCOCC1 | nt | nt | nt | -14 | 32 | 5.4 | 0 | 7 | -0.2 | 13
CC(=O)Nc1ccc(C2=NN(C)C(=NCc3ccccc3)SC2)cc1 | -27 | -20 | 20 | -10 | 99* | 3.7 | 0 | 0 | 0.9 | -11
Cc1nn(C)cc1S(=O)(=O)N1CCN(c2cccc(Cl)c2)CC1 | 4 | 16 | 2.1 | -6 | -4 | 2.6 | 9 | -19 | -0.1 | -2
CN1CCN(c2oc(-c3cccs3)nc2S(=O)(=O)c2ccccc2)CC1 | nt | nt | nt | 3 | 1 | -4.7 | 13 | -4 | -0.3 | -6
CCOc1ccc(N2C(=O)c3cccnc3C2=O)cc1 | nt | nt | nt | -12 | -20 | 1.3 | -2 | -1 | -1.9 | 2
Cc1nn(-c2ccc(F)cc2)c(C)c1CN1CCN(Cc2ccccc2)C(CCO)C1 (stereo not drawn) | 13 | -1 | 0.2 | 29 | -4 | -1.0 | -16 | 0 | -1.0 | -8
CC1=CCC2C(=O)N(c3nc(C)cc(C)n3)C(=O)C2C1 (stereo not drawn) | nt | nt | nt | 11 | 0 | -2.8 | -6 | 1 | -0.9 | 1
COc1ccc(-c2cccc(NC(=O)c3cccs3)c2)nn1 | -6 | -13 | -2.3 | -6 | -14 | 0.0 | 43 | 7 | -0.6 | 2
C/C(=N\N=c1/sc2ccccc2n1C)c1ccccn1 | -2 | -4 | -4.2 | -15 | -10 | -3.2 | -10 | -4 | -0.2 | -9
COc1ccc(C2/C=C\CN(Cc3ccncc3)CC(=O)N2Cc2ccc(F)cc2)cc1 (stereo not drawn) | -12 | -21 | 5.2 | -4 | nt | 0.4 | -3 | -1 | -0.1 | 4
CCOC(=O)C1CCN(CCC(=O)Nc2ccc(Br)cc2)CC1 | 1 | 3 | -3.4 | -3 | -3 | 2.1 | -15 | -11 | 1.0 | 27
COc1ccccc1OCCC(=O)OCC(=O)Nc1ccc(Br)cc1 | nt | nt | nt | -21 | -7 | 1.1 | -9 | -1 | 0.2 | 4
O=C(NNC(=O)C1CC1)Nc1ccc(Cl)cc1 | 1 | 0 | -1.0 | nt | -2 | -2.7 | -10 | 3 | 1.6 | 5
Cc1ccc(N2CC(C(=O)N(C)CC(=O)Nc3ccc(Cl)c(C(F)(F)F)c3)CC2=O)cc1 (stereo not drawn) | -36 | -46 | -7.4 | -16 | -3 | -7.2 | nt | -4 | 0.6 | 12
COc1ccc(N/C=C/C(=C(C#N)C#N)N(C)C)cc1 | 6 | 2 | 0.2 | -14 | 0 | -2.9 | 17 | -1 | -0.4 | -3

3 entries from above, sorted by length of the SMILES, high to low.
SMILES | rRNA inh HTS | rRNA inh HTS OD600 | rRNA inh HTS RFP | T cruzi repl | ALR inh | LANA-H2A inh | Calb FLC | Beta cell apopt | A1 inh | B2AR ag
O=C(CN1C(=O)S/C(=C/c2ccc(N3CCOCC3)cc2)C1=O)N1CCOCC1 | nt | nt | nt | -14 | 32 | 5.4 | 0 | 7 | -0.2 | 13
COc1ccccc1OCCC(=O)OCC(=O)Nc1ccc(Br)cc1 | nt | nt | nt | -21 | -7 | 1.1 | -9 | -1 | 0.2 | 4
COc1ccc(N/C=C/C(=C(C#N)C#N)N(C)C)cc1 | 6 | 2 | 0.2 | -14 | 0 | -2.9 | 17 | -1 | -0.4 | -3

Remaining list, next part
SMILES | rRNA inh HTS | rRNA inh HTS OD600 | rRNA inh HTS RFP | T cruzi repl | ALR inh | LANA-H2A inh | Calb FLC | Beta cell apopt | A1 inh | B2AR ag
O=C(NCc1cccc(C(F)(F)F)c1)c1cc(Cl)ccc1Cl | 22 | 10 | 5.4 | -7 | -3 | -1.1 | -18 | -1 | 1.4 | 1
O=C(Nn1c(O)c(C=C2N=c3ccccc3=N2)sc1=S)c1ccccc1Cl | nt | nt | nt | -1 | 40 | -3.4 | 8 | -17 | -0.7 | 2
O=C(Nc1nc2ccccc2[nH]1)c1ccc(OC(F)F)cc1 | 0 | -3 | -0.6 | 14 | -14 | 2.7 | 2 | 22 | -7.6 | -8
CN(C)c1ccc(N2C(=NC(=O)C3CCCO3)SC3CS(=O)(=O)CC32)cc1 (stereo not drawn) | 8 | 16 | 5.2 | -11 | 70 | -2.0 | -1 | 5 | -0.5 | 3
CCOC(=O)Cn1cc(C(=O)c2ccco2)c2ccccc21 | nt | nt | nt | -7 | 12 | -7.4 | 5 | -7 | 0.8 | 4
Cc1ccc2nc(NC(=O)CCNS(=O)(=O)c3cccs3)sc2c1 | nt | nt | nt | 12 | nt | -2.3 | 16 | 12 | -0.1 | -7
Cc1ccc(-c2nn(C)c(=O)c3ccccc23)cc1CN1CCOCC1 | nt | nt | nt | 7 | -3 | 0.7 | 4 | 1 | 0.2 | -22
Cc1cc(-c2nnc(CCC(=O)NCc3ccc(F)c(F)c3)o2)no1 | 9 | -2 | 3.4 | -1 | -4 | 9.3 | -8 | -2 | -1.1 | 2
